# Screening results (PubChem BioAssay)
# PINK1 expr mod – modulators of PINK1 expression; PINK1 immunofluorescence, high-content cytometry, 24 h; Potency, µM (highest dose often 76.6 µM), inactives show at the top dose activation (PINK1 increase), actives largely listed as activators; actives 0.2% (n = 410,000); active = well fitted activation curve with a large enough effect; inconclusive = small, poorly fitted or top-dose-only effect; inactive = flat fitted curve, though single readings scatter; cell line not stated here;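 note: potency is the fitted concentration of half-maximal effect; % of control where 0% means no effect; nearly all actives have a fitted effect of over 65% in size; a mitochondrial uncoupler was the plate control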
#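 Decision-based qHTS: stable cells, 24 h exposure to five compound concentrations, CCCP as control. Fixed cells stained for PINK1 plus nuclear, mitochondrial and cell markers, cytometer read.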
# D2 agonist – human D2 receptor agonism in beta-arrestin assay. P14416. DiscoveRx PathHunter D2 beta-arrestin, luminescence, 90 min; 100% = 57 uM dopamine signal. activation, % (no concentration beside the values). actives 0.084% (n = 360,000); in the data active = activation above about 40%; inconclusive = about 15% to 40%; inactive = below about 15%; note: compound concentration not given in the record; the text of the record calls up to 30% inactive
# Target sequence (P14416 whole entry, looked up): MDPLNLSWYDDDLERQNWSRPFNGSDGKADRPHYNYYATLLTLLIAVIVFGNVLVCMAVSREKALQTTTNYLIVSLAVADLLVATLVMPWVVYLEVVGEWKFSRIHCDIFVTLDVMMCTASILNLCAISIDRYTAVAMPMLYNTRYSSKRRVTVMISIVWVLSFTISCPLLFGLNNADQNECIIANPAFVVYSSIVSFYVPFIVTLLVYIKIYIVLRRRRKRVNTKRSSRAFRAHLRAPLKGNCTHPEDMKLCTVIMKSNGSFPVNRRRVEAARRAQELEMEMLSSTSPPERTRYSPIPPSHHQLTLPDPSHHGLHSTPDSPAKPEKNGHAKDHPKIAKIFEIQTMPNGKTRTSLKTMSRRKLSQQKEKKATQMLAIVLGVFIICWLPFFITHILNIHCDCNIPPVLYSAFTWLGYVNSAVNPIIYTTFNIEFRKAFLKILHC
#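 DiscoveRx PathHunter D2 beta-arrestin cells (2,100/well) attached overnight, then compound-stimulated 90 min at 37 C in HBSS/10 mM HEPES/0.1% Tween-20 buffer; beta-galactosidase complementation read by luminescence after 1 h at ambient temperature. Dopamine 57 uM final (EC100) as control.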
# D2 PAM – human D2 receptor positive allosteric modulation; P14416; DiscoveRx D2 beta-arrestin cells, luminescence, 90 min; 100% = 57 uM dopamine signal; potentiation, % (concentration not given with the values); actives 0.23% (n = 360,000); AID 624464; active = potentiation of 50% or more; inconclusive = 30% to 50%; inactive = 30% or less;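 note: compound concentration not given in the record; tested on top of an EC20 dose of dopamine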
#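 D2 cells co-treated with compound plus 50 nM dopamine (EC20) for 90 min at 37 deg C to detect potentiation. Beta-arrestin recruitment was read as enzyme-fragment luminescence after 1 h at ambient temperature. Full response was set by 57 uM dopamine.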
# TRPML1 ag – activates the human TRPML1 channel; activation, % (test concentration not listed); actives 0.12% (n = 410,000); AID 624414; TRPML1-expressing cells, Ca2+ dye fluorescence, FDSS; host cell line not named in the record; reference of the full effect not given here; Q9GZU1; in the data active = activation above about 50%; inconclusive = about 30% to 50%; inactive = below about 30%; note: 0% is about no effect; the text of the record puts the active cut at 80%
# Target sequence (Q9GZU1 whole entry, looked up): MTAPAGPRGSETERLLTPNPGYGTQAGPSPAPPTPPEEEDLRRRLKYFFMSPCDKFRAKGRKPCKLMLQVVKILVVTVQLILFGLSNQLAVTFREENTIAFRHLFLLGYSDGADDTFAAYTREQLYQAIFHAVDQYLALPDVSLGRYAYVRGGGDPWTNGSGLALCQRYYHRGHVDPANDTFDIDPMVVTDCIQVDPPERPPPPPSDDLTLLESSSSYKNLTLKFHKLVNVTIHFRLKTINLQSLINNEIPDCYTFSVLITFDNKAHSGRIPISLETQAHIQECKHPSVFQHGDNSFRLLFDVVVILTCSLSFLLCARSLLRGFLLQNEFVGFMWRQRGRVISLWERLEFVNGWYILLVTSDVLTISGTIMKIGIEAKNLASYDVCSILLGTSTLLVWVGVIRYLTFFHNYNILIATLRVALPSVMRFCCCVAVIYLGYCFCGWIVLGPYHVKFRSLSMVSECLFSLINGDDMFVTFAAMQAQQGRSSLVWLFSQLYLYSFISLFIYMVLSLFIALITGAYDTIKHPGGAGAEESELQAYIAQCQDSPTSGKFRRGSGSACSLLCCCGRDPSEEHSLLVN
#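 Tet-induced TRPML1-DL cells, 1,500 per well, cultured overnight, were loaded with a no-wash Ca2+ dye for 45–90 min. Calcium fluorescence was recorded on the FDSS for 110 s after compound addition, before the EC80 agonist (4 uM 54-4) was added.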
# Six1-Eya2 inh – Six1/Eya2 interaction inhibition. Q15475+O00167. AlphaScreen GST-Six1/His-Eya2 binding, biochemical; active compounds read low; control for the full effect not named in the record. activity change, % (test concentration not listed). actives 0.56% (n = 360,000); in the data active = activity change below about -65%; inconclusive = about -30% to -65%; inactive = above about -30%; note: % is set by controls: 0 for no effect and ±100 for the full control effect
#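 Homogeneous AlphaScreen proximity assay pairing GST-Six1 with His-tagged Eya2 (added as 5X mix: 250 nM and 500 nM) in 50 mM Tris pH 8.0, 300 mM NaCl, 1 mM TCEP. Glutathione donor and nickel acceptor beads; 1 h, 37 °C, dark.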
# TRPML1 inh – blocks the human TRPML1 channel. TRPML1-inducible cells, Ca2+ dye fluorescence, FDSS; active compounds read low; inhibition of EC80 agonist-evoked calcium signal. Q9GZU1. activity change, negative = inhibition, % (test concentration not listed). actives 0.02% (n = 390,000); in the data active means activity change below about -50%; inconclusive means about -30% to -50%; inactive means above about -30%;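 note: stimulus is agonist 54-4 at its EC80 concentration; % is set by controls: 0 for no effect and ±100 for the full control effect; compound concentration not given in the record; the text of the record puts the active cut at -80%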
#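 TRPML1-DL cells, Tet-induced overnight (~16 h, 37 °C) at 1,500 cells/well, were loaded with Ca8 no-wash dye plus quencher for 45-90 min at room temperature. Compounds were pinned during FDSS kinetic reading; agonist 54-4 at EC80 (4 uM final) then added.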
# * marks the source's active call; other numbers are inactive results; ? = inconclusive; . = not tested or not shown; & = joins results of further samples; [ ] = another dose, or the depositor's remark.
cpd	SMILES	PINK1 expr mod	D2 agonist	D2 PAM	TRPML1 ag	Six1-Eya2 inh	TRPML1 inh
1	CCN1C(=O)C(CC(=O)Nc2ccc(OC)cc2)N(CCCN2CCN(c3ccc(F)cc3)CC2)C1=S (configuration not stated)	27%	14	7	-0.7	0	-15
2	CN(c1ccccc1)c1nc(N)c(C#N)c(CC#N)c1C#N	-1.2%	-5.2	-7	0.4	1	-5
3	COCC(=O)Nc1sc2c(c1C(=O)OC)CCC(C)C2 (configuration not stated)	-2.0%	-0.2	5	4.1	-2	-1
4	CCCCNC(=O)c1cccc(NC(=O)C(=O)c2ccccc2NC(C)=O)c1	-0.3%	0.1	3	2.6	4	15
5	COc1cccc(C(=O)/C=C/c2ccc(N3CCCCC3)c([N+](=O)[O-])c2)c1	-2.6%	-3.4	0	-0.4	-2	-5
6	Cc1ccc(NC(=O)CCC(=O)NN=Cc2ccc(C)o2)c(C)c1	2.4%	-6.1	-8	-0.2	-6	5
7	CN(C)N1C(N)=C(C#N)C(c2ccc(Br)cc2)C2=C1CC(C)(C)CC2=O (configuration not stated)	16%	-2.0	0	1.6	7	10
8	CC(C(=O)OCn1nnc2ccccc2c1=O)N1C(=O)c2ccccc2C1=O (configuration not stated)	-2.2%	0.8	2	-0.1	4	-11
9	COc1cc(C(=O)NCC(c2ccco2)N2CCOCC2)cc(OC)c1OC (configuration not stated)	0.0%	-8.7	-22	-0.3	4	-10
10	CCC1Oc2ccccc2N(CC(=O)Nc2ccccc2OC)C1=O (configuration not stated)	-4.6%[38.3 µM]	-0.7	-12	1.1	-2	1
11	CCC(C)[C@H](NC(=O)Nc1ccc(C)cc1C)C(=O)O (some centres not stated)	2.9%	-2.2	-4	0.0	1	22
12	COc1ccc(/C=N/Nc2cc(C)nc(-n3nc(C)cc3C)n2)cc1	5.7%	-2.6	-12	0.0	-28	8
13	Cc1ccc(C)c(NC(=O)Cn2cnc3nc4c(cc3c2=O)CCCC4)c1	-0.1%	.	.	-0.9	.	16
14	CCCCc1nnc(NC(=O)Cc2ccc(OC)c(S(=O)(=O)N3CCOCC3)c2)s1	1.3%	-1.5	3	-0.6	-1	-7
15	CC1=C(C(=O)N(C)C)CC(CC(=O)NCC2CCCCC2)C(=O)N1Cc1ccc(F)cc1 (configuration not stated)	0.3%	-7.1	-6	-0.7	8	-13
16	O=C(CSc1nc2ccsc2c(=O)n1-c1ccc(Br)cc1)NCc1ccc(Cl)cc1	-4.9%	.	.	0.6	.	-2
17	CC1(C)Cn2c(nnc2-c2ccccc2)S1	-5.3%[38.3 µM]	-0.4	-4	-0.7	-1	2
18	CCCCC(=O)OCC(=O)Nc1cccc(S(=O)(=O)NC2=NCCCCC2)c1	-0.9%	-3.4	-2	-0.5	16	8
19	CCN1CCCC1CNC(=O)c1cc2c(-c3ccc(Cl)cc3)nn(C)c2s1 (configuration not stated)	-0.1%	2.3	0	0.1	?	-3
20	COC(=O)c1sccc1NC(=O)COc1ccc(F)cc1Cl	0.5%	6.1	-4	1.5	2	15

# Exported with values under each structure: part of the list above.
# Each structure is followed by: PINK1 expr mod | D2 agonist | D2 PAM | TRPML1 ag | Six1-Eya2 inh | TRPML1 inh
16: O=C(CSc1nc2ccsc2c(=O)n1-c1ccc(Br)cc1)NCc1ccc(Cl)cc1
    -4.9% | . | . | 0.6 | . | -2
17: CC1(C)Cn2c(nnc2-c2ccccc2)S1
    -5.3%[38.3 µM] | -0.4 | -4 | -0.7 | -1 | 2
18: CCCCC(=O)OCC(=O)Nc1cccc(S(=O)(=O)NC2=NCCCCC2)c1
    -0.9% | -3.4 | -2 | -0.5 | 16 | 8
19: CCN1CCCC1CNC(=O)c1cc2c(-c3ccc(Cl)cc3)nn(C)c2s1 (configuration not stated)
    -0.1% | 2.3 | 0 | 0.1 | ? | -3

# (next part)
cpd	SMILES	PINK1 expr mod	D2 agonist	D2 PAM	TRPML1 ag	Six1-Eya2 inh	TRPML1 inh
21	O=c1[nH]c2ccc(Br)cc2o1	-0.9%	-0.7	0	0.2	1	12
22	CCOc1ccc(C2C(C(=O)c3ccco3)=C(O)C(=O)N2CCN2CCOCC2)cc1 (configuration not stated)	-0.5%	-0.2	2	-0.4	4	6
23	Cc1cccc(N2CCN(C(=O)Cn3c(=O)[nH]c4ccsc4c3=O)CC2C)c1 (configuration not stated)	-3.5%	-0.2	10	-0.4	-5	-20
24	CCOC(=O)c1sc2nc(C)n(CC(=O)NCC3CCCO3)c(=O)c2c1C (configuration not stated)	-1.1%	0.9	-7	-0.5	10	-8
25	CN(C(=O)c1ccc(NC(=O)Cc2cccc(NC(=O)C3CCCN(C(=O)C4CCC4)C3)c2)cc1)C1CCCC1 (configuration not stated)	0.2%	7.4	-5	1.7	6	2
26	C=CCn1c(=S)[nH]c2sccc2c1=O	-0.8%	-2.0	-7	0.1	-5	16
27	O=C(NCC(c1ccccc1)c1ccccc1)c1nn(-c2ccccc2F)nc1CO	8.0%	.	.	3.0	.	-5
28	O=c1c2ccccc2nnn1COc1ccc(F)cc1Cl	-1.0%	2.4	-2	-0.4	12	-3
29	Cc1cc(C)c2oc(=O)cc(CN3CCOCC3)c2c1	-0.5%	-6.4	-11	-0.4	10	20
30	COc1nnc(-c2ccc(N3CCCCC3)c(N)c2)c2ccccc12	1.2%	1.5	8	3.1	-23	12
31	CCN1C(=O)[C@H]2[C@@H](c3ccc(-c4ccc(F)cc4)c(OC)c3)N[C@@](C)(C(=O)OC)[C@H]2C1=O	1.7%	1.1	-33	-0.6	1	-2
32	CN(C(=O)c1ccc(OC2CCN(C(=O)c3cccnc3)CC2)cc1)C1CCCCC1	2.0%	-1.6	4	-0.2	-2	3
33	COCCNC(=O)C1CC(=O)N(C2CCCCC2)C1 (configuration not stated)	-0.8%	-3.0	7	0.2	8	-8
34	COc1cccc(/C=C/C(=O)Oc2ccc(C(=O)c3ccc(F)cc3)cc2)c1	?	?	-7	0.7	-4	-20
35	Cc1nn(C(C)(C)C)c(OC(=O)C(C)(C)C)c1Sc1ccccc1	21%	.	.	-0.2	.	-1
36	CCCSc1nc2c(cnn2-c2ccc(C)cc2)c(=O)[nH]1	1.1%	2.9	-8	-0.3	8	28
37	O=C(Nc1cc(C(F)(F)F)ccc1Cl)c1cc2nc(-c3ccc4c(c3)OCO4)cc(C(F)(F)F)n2n1	9.3%	.	.	-0.8	.	-5
38	C[C@@H]1CCC(=O)N(C[C@@H](C)CSc2ccc(Br)cc2)CC1	1.0%	1.5	-10	2.0&-0.5	-2	0
39	CCOC(=O)C(Cc1ccccc1)C(=O)Nc1cccc(C)c1 (configuration not stated)	4.1%	-2.7	-4	0.1	8	3
40	CCOc1ccc(NC(=O)NC2CCCCCCC2)cc1	3.4%	-1.6	-18	1.2	2	-1
41	CC(=O)N1CCN(c2ccc(NC(=O)c3ccc(Cl)c(Cl)c3)cc2)CC1	-0.6%	10.0	1	-0.6	-8	-10
42	COc1cccc(COc2nc3c(c(=O)n(C)c(=O)n3C)n2C)c1	-0.3%	-3.1	-2	-0.6	-3	-1
43	Cc1cccc(N2CCN(C(=O)c3cn(C4CCCCC4)c(=O)c4c3c3ccccc3n4C)CC2)c1C	0.1%	.	.	0.6	.	6
44	COc1ccc(Cc2nnc(SCC(=O)N3CCCC3)o2)cc1	-0.6%	-2.4	-2	-0.3	8	6
45	Cc1csc(=NC(=O)c2ccccc2)n1Cc1ccco1	.	-0.7	-2	2.9	-12	33
46	Cc1cc(C(=O)OCC(=O)NC2CCCC2)c2ccccc2n1	-2.0%	4.1	-3	0.1	7	1
47	COc1cccc(C(=O)N2CCN(C(=O)C3CCCO3)CC2)c1 (configuration not stated)	2.8%	-2.2	-19	0.2	1	4
48	O=C(NCCc1ccccn1)c1ccc(OC2CCN(Cc3ccccn3)CC2)cc1	0.6%	-1.5	-13	-0.2	-7	-6
49	Cc1ccc(S(=O)(=O)N2CCOCC2)cc1C(=O)Nc1cccc(C(=O)NC2CC2)c1	3.3%	1.4	1	-0.5	-2	18
50	CCOC(=O)C(NS(=O)(=O)c1ccccc1)(C(F)(F)F)P(=O)(OC(C)C)OC(C)C (configuration not stated)	1.0%	-2.5	-20	-0.8	0	-3
51	Cn1c(=O)c2cc(NC(=S)NC3CCCCC3)ccc2n1-c1ccccc1	0.2%	7.8	-1	0.6	-3	.
52	CC(C)NC(=O)N1Cc2cc(C(=O)NC3CCC3)nc(-c3cccc(-c4cncnc4)c3)c2[C@H]1CCO	0.6%	.	.	0.1	1	.
53	COc1cccc(NC(=O)Cn2c(=O)n(CCc3cccc(C)c3)c(=O)c3ccccc32)c1	18%	.	.	0.4	.	2
54	Cc1cccc(C(=O)Nc2ccc(C(=O)N3CCCCC3C)cc2)c1 (configuration not stated)	-1.3%	-2.1	-11	1.7	24	-1
55	Cc1c(Cl)cccc1NC(=O)CN1CCC(C(O)(c2ccccc2)c2ccccc2)CC1	6.9%[38.3 µM]	-4.2	-24	0.3	-6	2
56	CCOc1ccc(-c2c(C(=O)N/N=C/c3ccco3)nnn2-c2nonc2N)cc1	0.6%	-6.8	0	-0.6	-3	-3
57	COc1cccc(N(Cc2nnc3n2CCCCC3)C(=O)Nc2ccccc2F)c1	0.8%	-1.8	-1	-1.4	-10	-16
58	CCc1cccc(CC)c1NC(=O)COC(=O)c1ccc(F)c(S(=O)(=O)N(CC)CC)c1	0.8%	3.1	-25	1.7	7	-3
59	CCC(Nc1ccc(OC)cc1)C(=O)N/N=C/c1ccc([N+](=O)[O-])cc1 (configuration not stated)	1.7%	2.0	5	0.1	-11	32
60	O=C(CN1CCOCC1)OCCCC1CCCCC1	-2.6%	-1.5	-5	-0.5	0	-11
61	COc1ccc(CCNC(=O)c2ccc(C)s2)cc1OC	1.5%	1.5	-5	0.3	3	7
62	COc1ccc(CNC(=O)C(C)Sc2ccc(C)cc2)cc1 (configuration not stated)	1.7%	-2.2	-6	0.8	12	2
63	O=C(NC(=S)Nc1ccc(NC(=O)c2cccs2)cc1)c1ccco1	4.1%	-1.7	-6	1.4	-15	-16
64	CC(=O)N1CCN(C(=O)c2ccc(NS(=O)(=O)c3cc(C)ccc3C)cc2)CC1	-0.6%	-0.3	17	-0.3	7	4
65	CCN(CC)c1ccc(C(=O)NCc2ccc3c(c2)CCN3C(=O)c2ccc(F)cc2)cc1	3.1%	.	.	0.1	.	5
66	CCN1CCc2c(sc(NC(=O)C3CCCCC3)c2C(=O)OC)C1	2.9%	-12	-12	-0.1	-6	0
67	CC(Sc1nnc(-c2ccccc2)c(-c2ccccc2)n1)C(=O)N1CCc2ccccc21 (configuration not stated)	0.3%	-4.3	-21	2.3	-27	-18
68	COc1ccccc1-c1cc(-c2ccccc2)nc(SCC(=O)O)c1C#N	1.8%	-2.2	-2	0.6	-6	-10
69	CC(C)CC(C(=O)Nc1oc(-c2ccco2)c(-c2ccco2)c1C#N)N1C(=O)c2ccccc2C1=O (configuration not stated)	0.0%	-4.0	-13	-0.6	?	-6
